StopGo RLuc: Primary qHTS Assay for Foot and Mouth Disease Virus Antivirals against NCGC Sytravon and CBC Compound Libraries: Renilla Luciferase Signal; HEK cells with a luciferase reporter of 2A StopGo recoding; Potency, µM (highest dose often 57.5 µM), inactives show top-dose signal change, negative = less light; 120,000 compounds, 0.32% hits; active means well fitted falling curve with a large enough effect; inconclusive means small, poorly fitted or top-dose-only effect; inactive means no such curve, though single readings can be large or run the other way; further: nearly all actives have a fitted effect of over 55% in size; overnight with compound
2A firefly: Primary qHTS Assay for Foot and Mouth Disease Virus Antivirals against NCGC Sytravon and CBC Compound Libraries: Firefly Luciferase Signal; HEK cells with a luciferase reporter of 2A StopGo recoding; Potency, µM (top dose mostly 57.5 µM), for inactives: top-dose signal change, negative = less light; 120,000 compounds, 0.23% hits; AID 1745856, 2022; active = well fitted falling curve with a large enough effect; inconclusive = small, poorly fitted or top-dose-only effect; inactive = no such curve, though single readings can be large or run the other way; further: nearly all actives have a fitted effect of over 60% in size; overnight with compound
* marks the source's active call; other numbers are inactive results; ? = inconclusive; [ ] = remark or other dose. On the % scale 0 is the no-effect control and ±100 the full control effect; potency means the concentration at half of the fitted maximal effect. An excerpt, so the mix of outcomes need not match the whole.

# | structure | StopGo RLuc | 2A firefly
1 | Cn1c(=O)oc2cc(S(=O)(=O)NC(Cc3ccccc3)C(=O)Nc3ccc(F)cc3)ccc21 (centres undefined) | 41%[activator] | -8%
2 | Cc1ccc(C(=O)c2c(C)c(C)cc(C)c2C)cc1 | 1% | 20%
3 | O=C(Nc1ccccc1C(=O)N1CCOCC1)c1cccc(Br)c1 | 13% | 18%
4 | NNC(=O)c1cccc([N+](=O)[O-])c1 | -4% | 32%[activator]
5 | Cc1cc(=O)n2c(n1)NC(Nc1ccc(F)cc1)=NC2c1cccs1 (centres undefined) | -9% | 2%
6 | Cc1cc(C)cc(NC(=O)c2sc3nc(-c4ccccc4)cn3c2C)c1 | -2% | -11%
7 | N#Cc1ccc(CN2CCN(C(=O)c3cc(C4CC4)nn3-c3ccccc3)CC2)cc1 | -29% | -28%
8 | O=C(O)c1ccccc1C(=O)c1cc(Cl)ccc1Cl | -18% | -1%
9 | CCCCCCn1c(CN2CCN(c3ccccc3)CC2)nc2c1c(=O)n(C)c(=O)n2C | -11% | -7%
10 | O=C(NC(c1ccccc1)c1ccccc1)C(Sc1ccccc1)c1ccccc1 (centres undefined) | 13% | 2%
11 | Cc1ccc2c(c1)-c1onc(C(=O)Nc3cc(-c4cccc(F)c4)no3)c1CO2 | -12% | -3%
12 | CCNC(=O)CCSc1nnc(-c2ccc(O)cc2)o1 | -3% | 0%
13 | c1ccc(-c2ccc(CNCC3CCCO3)cc2)cc1 (centres undefined) | 21% | 9%
14 | CCc1nc(N)nc(N)c1-c1ccc(Cl)cc1 | -26% | ?
15 | Cc1ccc2oc(-c3ccc(C)c(NC(=O)c4ccc([N+](=O)[O-])o4)c3)nc2c1 | -9% | 163%[activator]
16 | Cc1ccc(CNC(=O)Cn2c3ncccc3c(=O)n2-c2ccccc2)cc1 | 26% | 8%
17 | Cc1ccc(C)c(NC(=O)N2CCc3cc(S(=O)(=O)N4CCC(C)CC4)ccc32)c1 | 16% | 0%
18 | COc1ccc(CNC(=O)C23CCC(=O)N2CCS3)cc1 (centres undefined) | -7% | 3%
19 | CN(C)CC(O)COc1ccc(NC(=O)Nc2ccccc2)cc1 (centres undefined) | -24% | 106%[activator]
20 | CCc1ccc(Sc2cc(C(=O)NCc3cccc(OC)c3)c3ccccc3n2)cc1 | 52%[activator] | -18%

Other records follow:
# | structure | StopGo RLuc | 2A firefly
21 | COc1cccc(COC(=O)c2ccc(-c3nnn(Cc4ccccc4)n3)cc2)c1 | -5% | 14%
22 | COc1cc(/C=C(/C)[N+](=O)[O-])cc(OC)c1OC | ? | ?
23 | CCC(=O)Nc1cc(-c2nc3cc(OC)ccc3o2)ccc1C | 6% | 223%[activator]
24 | CC(=O)c1cccc(NC(=O)c2ccc(Cl)c(S(=O)(=O)N3CCOCC3)c2)c1 | 32%[activator] | ?
25 | O=C(O)CCNS(=O)(=O)c1ccc(Br)cc1 | 4% | -3%
26 | COc1ccc(C)cc1NC(=O)c1cc(S(=O)(=O)N2CCOCC2)cn1C | -8% | -7%
27 | Clc1ccccc1N/N=C/C(Br)=C/c1ccccc1 | 24% | 156%[activator]
28 | CCc1cccc(C)c1NC(=O)CN(C)S(=O)(=O)c1cccc2nsnc12 | -3% | -14%
29 | CCN(CC)CC(=O)Nc1c(-c2ccccc2)c2cc(Br)ccc2[nH]c1=O | -8% | -14%
30 | COc1ccc(NC(=O)c2ccc(NC(=O)CCS(=O)(=O)c3cccs3)cc2)cc1 | 15% | 52%[activator]
31 | CCOc1ccc(N(C)C(=O)c2oc(=O)c3ccccc3c2-c2ccccc2)cc1 | -16% | ?
32 | Cn1c(=O)c2c(SCC(=O)Nc3ccc(F)cc3F)nc(C3CCCC3)nc2n(C)c1=O | 13% | 28%
33 | COc1ccc(NC(=O)C2CCCN(S(=O)(=O)c3cccs3)C2)cc1 (centres undefined) | 5% | ?
34 | CCN1CCc2c(sc(-n3cccc3)c2C(CCC(C)C)NC(=O)NCCC(=O)OC)C1 (centres undefined) | -3% | -17%
35 | O=C(c1ccccc1)c1ccc(C(=O)N2CCN(c3nc4ccc(F)cc4s3)CC2)cc1 | 4% | 10%
36 | O=C(Nc1cccc(-c2nc3ncccc3o2)c1)c1ccc(-c2cccc(Cl)c2Cl)o1 | -2% | 15%
37 | COc1ccc(NC(=O)c2sc3nc(-c4ccc(OC)cc4)cc(C(F)(F)F)c3c2N)cc1 | 4% | -6%
38 | CCCCNCc1ccc(-c2ccc(C(C)O)cc2)o1 (centres undefined) | 0% | 8%
39 | O=C(COC(=O)C12CC3CC(CC(Br)(C3)C1)C2)Nc1ccc([N+](=O)[O-])cc1Br | 15% | 35%[activator]
40 | COc1ccc(CCNC(=O)c2ccc3[nH]c(C)c(C)c3c2)cc1OC | 2% | -16%

(continued)
# | structure | StopGo RLuc | 2A firefly
41 | O=C(NCc1ccc(Cl)cc1)c1cc2cccc3c2n1CCS3 | 16% | 16%
42 | Cc1ccc(C2C(C#N)=C(N)OC3=C2C(=O)CC(c2ccccc2Cl)C3)cc1 (centres undefined) | 23% | -5%
43 | COc1ccc2c(C)cc(SCC(=O)N3CCCC3)nc2c1 | 12% | 4%
44 | O=C(CSc1nc2ccccc2nc1Cc1ccc(Cl)cc1)Nc1ccc2c(c1)OCO2 | -14% | 12%
45 | O=C(CCn1c(=O)c2sccc2n(Cc2cccc(F)c2)c1=O)NCc1ccc2c(c1)OCO2 | -5% | 30%
46 | Cc1ccc(CN2C3=NCCCN3c3ccccc32)cc1 | -8% | 7%
47 | N#Cc1ccc(OCCOC(=O)c2ccccc2SCC2CCCO2)cc1 (centres undefined) | ? | ?
48 | COc1ccc2c(ccn2CC(=O)NCC2(CC(=O)O)CCCCC2)c1 | -2% | 25%
49 | CC(C)CCn1nc(C(=O)OC(C)C(=O)NC(N)=O)c2ccccc2c1=O (centres undefined) | -4% | 2%
50 | CCOC(=O)c1c(NC(=O)COc2c(C)cc(Cl)cc2Cl)sc2c1CCCC2 | 12% | 0%
51 | O=C(N/N=C/c1cc(-c2ccccc2)sc1Cl)c1ccccc1 | 13% | 6%
52 | COc1ccc(NC(=O)CSc2nc(-c3cccc(C)c3)[nH]c2-c2ccccc2)cc1OC | -17% | -10%
53 | Cc1c(C)c2c(c(C)c1OC(=O)CCC(=O)OCCO)CC[C@@](C)(CCC[C@H](C)CCC[C@H](C)CCCC(C)C)O2 | -19% | -11%[11.5 µM]
54 | O=S(=O)(NCCc1nnc2ccc(SCc3cccc(F)c3)nn12)c1ccccc1 | 102%[activator] | -10%
55 | COc1ccc(NC(=O)CN(C)C(=O)CCNS(=O)(=O)c2ccc(Br)cc2)cc1 | 53%[activator] | -13%
56 | CCN(CC)C(=O)c1ccc2oc(CN3CCN(C(=O)Nc4cccc(Cl)c4C)CC3)nc2c1 | -3% | -28%
57 | Cc1ccc(-c2nc(Nc3ccc(C(=O)O)cc3)c3ccccc3n2)cc1 | 69%[activator] | 240%[activator]
58 | CCS(=O)(=O)Nc1cc(-c2cn3ccc(C)cc3n2)ccc1C | 18% | 168%[activator]
59 | Cc1ccc(OCCN(C)C(=O)COc2ccc3c(C)cc(=O)oc3c2)cc1 | 26% | 28%
60 | O=C(Nc1cccc(OCc2cc(=O)n3ccccc3n2)c1)Nc1cccc(C(F)(F)F)c1 | -5% | 9%

The results go on:
# | structure | StopGo RLuc | 2A firefly
61 | COc1ccccc1CNC(=O)C1CCN(S(=O)(=O)c2c(C)noc2/C=C/c2c(C)cc(C)cc2C)CC1 | 4% | -15%
62 | CC(Cc1cccc(F)c1)C(=O)N1CCC(C(=O)N2CCN(C)CC2)CC1 (centres undefined) | -2% | -8%
63 | COc1ccc(C(=O)NCC(c2ccc(N(C)C)cc2)N2CCCC2)cc1 (centres undefined) | -4% | -2%
64 | OC(CNC/C=C/c1ccccc1)c1ccccc1 (centres undefined) | -14% | -3%
65 | COc1ccc(C(=O)NCC(c2ccc(N(C)C)cc2)N2CCc3ccccc32)cc1OC (centres undefined) | -7% | -19%
66 | CO[C@@H]1[C@@H](OC)[C@H](C)[C@@](O)(CC(=O)O)O[C@H]1[C@H](C)[C@H]1O[C@@]2(CC[C@@](C)([C@H]3CC[C@@](C)([C@@H]4O[C@@H]([C@H]5O[C@](C)(O)[C@H](C)C[C@@H]5C)C[C@@H]4OC4C[C@H](OC)[C@@H](OC)[C@H](C)O4)O3)O2)C[C@H](O)[C@H]1C (some centres undefined) | ? | ?
67 | COc1cccc(/C=C/C(=O)c2nc3ccccc3s2)c1OC(F)F | 39% | 0%
68 | Cc1cc(C)c(NC(=O)c2ccc3c(c2)CCC3)c(Cl)c1 | 21% | 0%
69 | O=[N+]([O-])c1ccc(/C=C/c2ccc([N+](=O)[O-])cc2)cc1 | -10% | 180%[activator]
70 | Cc1ccc(NC(=O)C2CCN(S(=O)(=O)c3cccc4nonc34)CC2)cc1C | -10% | -13%
71 | Cc1ccc(CCNC(=O)c2ccc(CSCc3ccc(C)cc3)o2)cc1 | -15% | -22%
72 | c1ccc(NCC2CCOC2)cc1 (centres undefined) | -7% | 6%
73 | Cc1cc(=O)oc2cc(OCC(=O)OCC(=O)Nc3ccc(C(C)C)cc3)ccc12 | -3% | 0%
74 | Cc1ccc(N(Cc2nc3nc(C)cc(C)n3n2)S(=O)(=O)c2ccc(C)cc2)cc1 | 142%[activator] | -7%
75 | O=C(CSc1nnc(-c2ccc(F)cc2)n1CC1CCCO1)Nc1ccc2c(c1)CCC2 (centres undefined) | 39%[activator] | -4%
76 | CCNCC(=O)OCC | 5% | -7%
77 | Cc1ccccc1Cn1c(=O)n(Cc2ccco2)c(=O)c2oc3ccccc3c21 | -1% | 13%
78 | CCOc1ccc(NC(=O)Cn2cnc3c2c(=O)n(C)c(=O)n3C)cc1 | -9% | 6%
79 | Cc1cccc(C(=O)N2CCN(c3oc(-c4cccs4)nc3C#N)CC2)c1 | 5% | 4%
80 | CCN1CCN(C(=O)c2ccc3c(c2)N(Cc2cccc(F)c2)C(=O)c2ccccc2S3)CC1 | 48%[activator] | -10%

Other results
# | structure | StopGo RLuc | 2A firefly
81 | COc1cccc(/C=C(\C#N)C(=O)Nc2ccccc2C(=O)O)c1OC | 75%[activator] | 312%[activator]
82 | CCCNC(=O)NC1=C(C#N)C(C)(C)Cc2ccccc21 | -4% | -4%
83 | COc1ccccc1N1CCN(c2nccnc2SCC(=O)Nc2cccc(Cl)c2C)CC1 | 8% | 24%
84 | CCOC(=O)c1cc(C(O)(C(=O)OC)C(F)(F)F)c(N)o1 (centres undefined) | ? | ?
85 | CC(NC(N)=S)c1ccccc1 (centres undefined) | -11% | 17%
86 | Cc1ccc(NC(=O)Cn2ncn3c(cc4ccccc43)c2=O)cc1F | -14% | -28%
87 | CC(NC(=O)COc1ccc(C#N)cc1)C12CC3CC(CC(C3)C1)C2 (centres undefined) | 16% | 1%
88 | CCOC(=O)c1cc(S(=O)(=O)NCc2ccc(Cl)cc2)[nH]n1 | -8% | 19%
89 | CCCNC(=O)N(C)Cc1nc(-c2ccccc2)no1 | -2% | 14%
90 | CCc1ccc2c(CSc3nc4nc(C)cc(C)n4n3)cc(=O)oc2c1 | 20% | 10%
91 | CC(Sc1nnc(C2CC2)n1Cc1ccccc1)C(=O)Nc1ccnn1C(C)C (centres undefined) | 23% | 9%
92 | COc1ccc(C(CNC(=O)COc2ccc(C)c(C)c2)N2CCCCC2)cc1 (centres undefined) | -18% | -28%
93 | COc1ccc(CCNC(=O)CCCn2c(=O)c3ccccc3n(CC(=O)Nc3ccc(C)cc3Cl)c2=O)cc1OC | 7% | 1%
94 | C/C(CC(C)(C)c1ccccc1)=N\NC(N)=S | -5% | 0%
95 | CC1CCc2onc(C(=O)N3CCN(c4ccc(F)cc4)CC3)c2C1 (centres undefined) | -9% | -7%
96 | CC(=O)Nc1ccc(-c2nc(N3CCCC3)sc2C)cc1 | 12% | 44%[activator]
97 | COc1cc(CNc2ncn[nH]2)ccc1OCc1ccccc1C | 7% | 191%[activator]
98 | Cc1ccc(-n2c(-c3ccccc3)cc(C=Nc3ccc(C)cc3C)c2-c2ccccc2)cc1 | 17% | 18%
99 | O=C(NCc1ccc(F)cc1)c1cc(S(=O)(=O)C2CCS(=O)(=O)C2)ccc1F (centres undefined) | -11% | 18%
100 | CCc1ccc(-c2nc(C)c(C(=O)Nc3ccc4[nH]c(=O)[nH]c4c3)s2)cc1 | -1% | 0%

Next results
# | structure | StopGo RLuc | 2A firefly
101 | CC(=O)N1CCc2cc(S(=O)(=O)NC(Cc3ccccc3)C(=O)Nc3cc(C)cc(C)c3)ccc21 (centres undefined) | -1% | 1%
102 | COc1ccc(/C=C/C(=O)N2CCC(c3nc4ccccc4o3)CC2)cc1 | ? | -6%
103 | CC(=O)Nc1cc(F)c(F)cc1NC(=O)c1cc2ccccc2oc1=O | 3% | 13%
104 | CN(C)c1ccc(NC(=O)c2cccc(S(=O)(=O)NCc3cccs3)c2)cc1 | 11% | -28%
105 | O=C(O)CN(CCOCCOCCN(CC(=O)O)CC(=O)O)CC(=O)O | -9%[0.46 µM] | -18%[0.46 µM]
106 | Cc1ccc(NC(=O)C2CCN(S(=O)(=O)c3cccc4nonc34)CC2)c(Cl)c1 | -8% | -8%
107 | CC1C(=O)N2CCCc3cc(S(=O)(=O)NCc4ccco4)cc1c32 (centres undefined) | 68%[activator] | 7%
